From PubChem
ClpP mod: qHTS Assay for Activators of ClpP. 1.9% of 340,000 active. Potency, µM (highest dose often 57.5 µM), for the others: at the highest dose activity change, negative = active. purified B. subtilis ClpP, FRET peptide cleavage, 20 min. ATP-dependent Clp protease proteolytic subunit (Bacillus subtilis (strain 168)), P80244. AID 651965, 2013; active = well fitted falling curve with a large enough effect; inconclusive = small, poorly fitted or top-dose-only effect; inactive = no such curve, though single readings can be large or run the other way; note: potency is the fitted concentration of half-maximal effect; the source files actives as falling curves though it sought activators and does not explain the sign; nearly all actives have a fitted effect of over 65% in size; many hits overshoot -100%
Target sequence (P80244 whole entry, looked up): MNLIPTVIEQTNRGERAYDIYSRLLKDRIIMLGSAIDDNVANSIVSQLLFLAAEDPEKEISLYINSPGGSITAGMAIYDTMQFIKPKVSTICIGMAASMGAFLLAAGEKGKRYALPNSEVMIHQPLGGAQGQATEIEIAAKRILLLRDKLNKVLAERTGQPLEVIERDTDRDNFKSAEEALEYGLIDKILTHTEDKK
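FRET quenching reversal measured ClpP activation: 10 microg/mL B. subtilis ClpP at pH 8 with the FRET-FV decapeptide, read at 430 nm after 320 nm excitation. The 20-min minus 0-min signal was scaled between DMSO/no-enzyme wells and ADEP (5.8 microM final).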
Sfp inh: blocks B. subtilis Sfp PPTase activity. Q9F4F7. 3.5% of 310,000 active. Potency, µM, without a hit: max response, negative = inhibition, most hits filed as inhibitors. AID 1490. Biochemical Sfp PPTase activity, qHTS; active = well fitted inhibition curve with a large enough effect; inconclusive = small, poorly fitted or top-dose-only effect, or another doubt; inactive = no such curve, though single readings can be large or run the other way;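 note: the enzyme is Sfp with the accession as filed and its product quenches rhodamine fluorescence; potency is the fitted concentration of half-maximal effect; 0% = enzyme reaction without inhibitor and -100% = no enzyme wells; top concentration of the series not given in the record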
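With Hepes-Na pH 7.6 buffer containing 10 mM MgCl2, Sfp (15 nM) modified BHQ-2-YbbR (12.5 uM) using rhodamine-CoA (5 uM). Two reads 30 minutes apart at 525/598 nm yielded each well's rate.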
gsp antag: antagonists of gsp mutant (McCune-Albright syndrome). gsp-mutant cells, cAMP HTRF, 30 min; control for the full effect not named in the record. Potency, µM (doses to about 76.9 µM), for inactives: at the highest dose activity change, negative = inhibition, hits mostly inhibitors. 0.4% of 340,000 active. AID 624288; active = falling curve of any shape with a large fitted effect; inconclusive = falling curve, mostly with a smaller effect; inactive = flat or rising curve; cell line not stated here;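 note: intracellular cAMP measured with PDE inhibitor Ro 20-1724 present during compound exposure; potency is the fitted concentration of half-maximal effect; % is set by controls: 0 for no effect and ±100 for the full control effect; nearly all actives have a fitted effect of over 65% in size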
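HTRF cAMP read-out (cAMP-d2 plus anti-cAMP antibody-K in lysis buffer, 30 min RT). Before lysis, cells are exposed to compounds with […] for 30 min at 37C in DPBS containing Ca/Mg, BSA and Tween 20.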
Menin MLL FP FL: inhibitors of human menin-MLL interaction, wild-type MLL peptide | Fluorescence polarization, fluorescein-MLL peptide displacement from menin | FP activity change, % at 61.4 µM | 290,000 tested, under 10 active | AID 1766; inconclusive = falling polarisation curve, or a change in total fluorescence; inactive = total fluorescence flat and polarisation flat or rising; no compound was filed as active; the % refers to the polarisation; negative = inhibition;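 note: % of control where 0% means no effect; inhibitors lower the polarisation; unlabelled MLL peptide was the positive control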
D2 agonist: activates the human D2 dopamine receptor; DiscoveRx PathHunter D2 beta-arrestin, luminescence, 90 min; 100% = 57 uM dopamine signal; P14416; AID 624465; activation, % (concentration not given with the values); 0.084% of 360,000 active; in the data active = activation above about 40%; inconclusive = about 15% to 40%; inactive = below about 15%; note: compound concentration not given in the record; the text of the record calls up to 30% inactive
Target sequence (P14416 whole entry, looked up): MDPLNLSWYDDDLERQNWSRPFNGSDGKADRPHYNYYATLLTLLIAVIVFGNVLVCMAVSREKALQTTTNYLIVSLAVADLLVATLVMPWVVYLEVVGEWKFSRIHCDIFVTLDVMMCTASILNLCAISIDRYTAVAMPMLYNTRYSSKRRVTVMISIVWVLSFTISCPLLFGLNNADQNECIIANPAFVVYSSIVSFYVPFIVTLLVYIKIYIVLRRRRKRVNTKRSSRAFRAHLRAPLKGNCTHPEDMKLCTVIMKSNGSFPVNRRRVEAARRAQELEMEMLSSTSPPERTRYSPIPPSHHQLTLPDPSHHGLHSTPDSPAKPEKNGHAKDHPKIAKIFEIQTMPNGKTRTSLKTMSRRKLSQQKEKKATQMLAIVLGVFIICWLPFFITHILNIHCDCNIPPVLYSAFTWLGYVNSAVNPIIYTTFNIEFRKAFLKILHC
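DiscoveRx PathHunter D2 beta-arrestin cells (2,100/well) attached overnight, then compound-stimulated 90 min at 37 C in HBSS/10 mM HEPES/0.1% Tween-20 buffer; beta-galactosidase complementation read by luminescence after 1 h at ambient temperature. Dopamine 57 uM final (EC100) as control.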
PINK1 expr mod: modulators of PINK1 expression; 0.2% of 410,000 active; PINK1 immunofluorescence, high-content cytometry, 24 h; Potency, µM (top dose mostly 76.6 µM), inactives show at the top dose activation (PINK1 increase), usual class: activators; active = well fitted activation curve with a large enough effect; inconclusive = small, poorly fitted or top-dose-only effect; inactive = flat fitted curve, though single readings scatter; cell line not stated here;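 note: potency is the fitted concentration of half-maximal effect; % of control where 0% means no effect; nearly all actives have a fitted effect of over 65% in size; a mitochondrial uncoupler was the plate control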
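Decision-based qHTS: stable cells, 24 h exposure to five compound concentrations, CCCP as control. Fixed cells stained for PINK1 plus nuclear, mitochondrial and cell markers, cytometer read.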
gsp ag: activates gsp, the McCune-Albright syndrome mutation. 0.13% of 340,000 active. gsp mutant cells, cAMP HTRF, 30 min; control for the full effect not named in the record. Potency, µM (highest dose often 76.9 µM), for inactives: top-dose activation (cAMP increase), hits mostly activators. AID 624287; active = well fitted activation curve with a large enough effect; inconclusive = small, poorly fitted or top-dose-only effect, or another doubt; inactive = no such curve, though single readings can be large or run the other way; cell line not stated here;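 note: phosphodiesterase inhibitor Ro 20-1724 added with compounds to block cAMP breakdown; potency is the fitted concentration of half-maximal effect; nearly all actives have a fitted effect of over 60% in size; about a fifth of the inactives were tested at one dose only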
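Cells stably selected in G418 were plated at 2000/well, grown 16-24 hr, then given compounds in DMSO with the PDE inhibitor […] (300 uM solution added) for 30 min at 37C; cAMP was read by HTRF.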
An asterisk follows results filed as active; ? = inconclusive; / = no result given; & = joins results of further samples; [ ] = another dose, or the depositor's remark.

SMILES	ClpP mod	Sfp inh	gsp antag	Menin MLL FP FL	D2 agonist	PINK1 expr mod	gsp ag
Cc1ccc(NC(=O)C2(C)CCN2C(=O)CC(c2ccccc2)c2ccccc2)cc1 (configuration not stated)	5.0%	/	/	/	-6.9	1.3%	/
CCOc1cc(N2CCOCC2)c(OCC)cc1NC(=O)COC(=O)[C@@H]1CCCN1S(=O)(=O)c1ccccc1F	/	-29%	-2%	-2.2	0.2	4.9%	-13%
COc1ccc([C@H]2/C=C\CN(Cc3ccc(N(C)C)cc3)[C@@H](C)C(=O)N2Cc2ccc(F)cc2)cc1	-9.0%	/	-27%	/	-4.9	1.7%	-26%
C#CC(C)(CC)NC(=O)Cn1nnc(-c2ccc(S(C)(=O)=O)cc2)n1 (configuration not stated)	-26%	12%	-3%[15.4 µM]	0.4	-1.4	1.4%	6%
COc1cccc(CNC(=O)CCc2ccc(OC)c(OC)c2)c1	-19%	16%	-11%	3.8	-0.2	1.2%	7%[15.4 µM]
CC[C@]12c3[nH]c4ccc(Cl)cc4c3CCN1C(=O)[C@@H](CC(=O)NCc1ccc(OC)c(OC)c1)C[C@@H]2C(=O)N1CCN(C(=O)c2ccco2)CC1	-0.2%	/	-7%	/	2.1	2.6%	/
C/C(=N\NC(=S)NCCc1ccccc1)c1ccc(Cl)cc1	?	1%	-8%	8.5	-1.4	1.1%	6%
COc1c(F)c(F)c(C(=O)Nc2ccc(N3CCN(Cc4ccccc4)CC3)cc2)c(F)c1F	-1.1%	20%	1%	-0.5	-2.6	22%[38.3 µM]	?
Cc1noc(C)c1C(=O)N(CC(=O)NC1CCCC1)Cc1ccccc1F	-0.6%	-11%	5%	5.0	-1.8	0.1%[38.3 µM]	-13%
N#Cc1ccsc1NC(=O)CSc1ncn[nH]1	?	11%	10%	0.6	-3.3	21%[38.3 µM]	?
CCOc1ccc(NC2OCC(O)C(O)C2O)c([N+](=O)[O-])c1 (configuration not stated)	1.2%	20%	11%	1.1	-4.2	1.7%	10%
COc1ccc(NC(=O)CCNS(=O)(=O)c2cccc3nsnc23)cc1OC	0.5%&-3.3%	-11%	17%	-0.5	-3.7	-1.6%&1.3%	-19%[15.4 µM]
CC(=O)C(C)Oc1cc(C)cc2oc(=O)c(C)c(C)c12 (configuration not stated)	3.2µM*	22%	9%	3.9	0.1	1.9%	-16%
O=C(Nc1cccc(S(=O)(=O)N2CCCCC2)c1)c1ccccc1NS(=O)(=O)c1ccc(F)cc1	32µM*	10%	?	5.5	-2.6	14µM*	?
O=C(NCc1cccs1)C1CCN(S(=O)(=O)c2cccs2)CC1	1.2%	-25%	6%	-0.1	1.3	1.5%[38.3 µM]	8%
COc1ccccc1CCNC(=O)Cc1cccs1	/	4%	4%	12	1.3	3.5%	3%[15.4 µM]
O=C(Nc1ccc(OCc2ccccc2)cc1)Nc1nnc([C@@H]2C[C@H](O)[C@@H](CO)O2)s1	-2.6%	/	/	/	-3.6	4.2%	/
COCCNC(=S)N1CCN(c2cccc(C(F)(F)F)c2)CC1	/	19%	-12%	0.0	-18	2.7%	-16%[15.4 µM]
CCn1cc(CN2CCCC(CNC(=O)COc3ccccc3OC)C2)c(C)n1 (configuration not stated)	0.0%	11%	2%	2.8	0.5	-0.5%	7%
CCCC(=O)NC(=S)Nc1ccc(S(=O)(=O)Nc2ccc(OCC)cc2)cc1	-1.5%	13%	-1%	5.8	-4.6	?	-5%
COc1ccc(C)cc1NC(=O)C1CCCN(S(=O)(=O)c2cccc3cccnc23)C1 (configuration not stated)	0.0%	12%	-25%	-0.6	3.5	-2.5%	-21%
O=c1cc(O)c2sc(Nc3ccc(Cl)c(F)c3)nc2[nH]1	/	?	4%	37[activator]	4.6	8.9%	-1%[15.4 µM]
Cc1cc(OCc2cc(C(=O)N(C)Cc3nonc3C)no2)cc(C)c1Cl	-2.0%	5%	-20%	7.4	5.4	1.6%	?
CC(NC(=O)c1ccccc1)C(=O)N/N=C/c1ccccc1 (configuration not stated)	/	15%	/	1.2	-3.8	2.0%	7%[15.4 µM]
O=c1c(CCc2ccccc2)nc2cnc(Nc3ccccc3)nc2n1Cc1cccs1	/	22%	/	15	/	?	/
COc1ccccc1N1CCN(C(=O)C(F)F)CC1	-0.6%	-20%	3%	-0.5	-1.1	17%[38.3 µM]	-24%
CCOCCCNC(=O)C(c1ccccc1)N(Cc1cccs1)C(=O)CNC(C)=O (configuration not stated)	1.7%	-11%	14%	-0.7	0.9	1.8%	-14%
COc1ccc(S(=O)(=O)N2CCCOC2CNC(=O)C(=O)NCCCn2ccnc2)cc1OC (configuration not stated)	/	22%	17%	0.2	-2.9	1.3%	26%[15.4 µM]
CN1c2ccsc2/C(=N/Nc2ccccc2)CS1(=O)=O	/	?	-2%	3.6	11	4.6%	-4%
O=C(Nc1cccc(C2OCCCO2)c1)c1cccs1	-1.5%	-4%	1%	-2.4	4.3	2.3%	30%[15.4 µM]
CC(=O)Oc1ccc(N2C(=O)c3cccc4c([N+](=O)[O-])ccc(c34)C2=O)cc1	1.5%	-4%	-24%	?	-4.5	1.7%	0%
O=C(CC1CCS(=O)(=O)C1)Nc1ccc[nH]c1=O (configuration not stated)	-2.6%	?	2%	-5.0	-0.8	-0.9%	?
CCn1c(SCC(=O)N(C)C)nc2cc(S(=O)(=O)N3CCOCC3)ccc21	-0.5%	/	5%	/	-3.0	0.1%	-18%
Cc1ccc2c(c1)C(c1ccccc1)N(C(=O)c1ccc3c(c1)OCO3)CC(=O)N2 (configuration not stated)	/	-3%	-3%	-1.9	-1.5	6.7%	13%
O=C(c1noc2c1CCCC2)N1CCOCC1	1.5%	11%	4%	0.6	-0.3	2.0%	-11%
O=C(COC(=O)c1ccc(O)cc1O)Nc1cccc2ccccc12	0.2%	/	-10%	/	7.7	1.9%	?
COc1ccc(C(=O)NCc2nnc(SCC(=O)c3ccccc3)n2C)cc1OC	2.1%	/	-3%	/	-4.7	0.0%	-32%
CCc1ccccc1NC(=O)COc1ccc2oc(-c3ccc(OC)cc3)cc(=O)c2c1	-0.5%	-16%	-3%	4.5	-1.1	9.2%	15%[15.4 µM]
O=C(CN1CCCCCC1)Nc1ccccc1Oc1ccccc1	/	-9%	-33%	-1.6	-0.9	17%	2%[15.4 µM]
CC(C)c1ccc(C(CC(=O)O)NC(=O)c2cccs2)cc1 (configuration not stated)	/	3%	14%	2.1	0.0	0.5%	-2%[15.4 µM]
Cc1noc(C)c1S(=O)(=O)N1CCC(C(=O)O)CC1	-0.4%	/	4%	/	0.3	1.7%	7%
COC(=O)c1ccccc1-c1ccc(/C=C2\C(=O)N(c3ccccc3)N=C2c2ccccc2)o1	2.6%	-1%	0%	0.3	-4.3	0.4%	6%
CN1OC[C@@H]2CN(C(=O)c3cccc4ccccc34)[C@H](c3ccc(N4CCCCC4)cc3)C[C@@H]21	-6.9%	/	/	/	-3.3	-0.2%	/
COc1ccc(C)cc1NC(=O)COC(=O)c1c(C)nn(-c2ccccc2)c1C	-1.3%	/	40µM*	/	1.6	0.1%	-43%[inhibitor]
O=C1C=C(c2ccc(Cl)nc2)C[C@@H](c2ccc3c(c2)OCO3)C1	-1.8%	/	-6%	/	-1.6	1.2%	/
CCOC(=O)N1CCN(C(=O)C2CCC(=O)N(CCCc3ccccc3)C2)CC1 (configuration not stated)	-0.4%	9%	11%	/	0.9	-0.7%	-15%
CCOC(=O)CN1C(=O)N[C@H](c2ccc(Br)cc2)C(C(C)=O)=C1C	1.3%	?	-1%	0.6	-2.8	-1.6%	/
COc1cc2c(cc1OC)C(c1ccc(C(F)(F)F)cc1)CC(=O)N2 (configuration not stated)	/	9%	11%	1.9	3.5	1.6%	-4%
Cc1ccc(OCCNC(=O)[C@H]2O[C@@H](n3cnc4c(N)ncnc43)[C@H](O)[C@@H]2O)cc1C	-11%	/	/	/	-2.0	3.1%	/
CCC(SC1=N/C(=C/c2ccccc2)C(=O)N1c1ccccc1)C(=O)Nc1cc(C)on1 (configuration not stated)	-0.2%	-5%	-3%	4.7	-6.6	4.9%	-10%[15.4 µM]
Cc1ccc(-c2n[nH]c(=O)c3ccccc23)cc1S(=O)(=O)NCC1CCCO1 (configuration not stated)	/	12%	3%	/	-0.3	1.8%	?
OC1(C2(O)CC(c3ccccc3)ON2)CCCCC1 (configuration not stated)	0.9%	13%	17%	-0.5	-3.6	-1.4%	-7%
CCN(Cc1ccccc1)C(=O)COc1ccccc1	0.1%	7%	6%	-1.4	-7.0	-0.4%	12%[15.4 µM]
Cc1ccc(S(=O)(=O)N2CCOCC2)cc1C(=O)OCc1nnc(-c2ccccc2)o1	/	/	-27%	/	1.2	-1.9%	-7%[15.4 µM]
O=C(CSc1ccc2nnc(-c3ccccn3)n2n1)NCc1ccco1	-23%	?	10%	0.5	2.1	1.1%	?
O=C(N/N=C/c1ccncc1)c1ccccc1[N+](=O)[O-]	/	3%	-1%	-4.7	0.9	-0.9%	-4%[15.4 µM]
CCC(c1nnnn1Cc1ccco1)N(CCc1ccccc1)Cc1cc2cc(C)ccc2[nH]c1=O (configuration not stated)	-9.2%	18µM*	-7%	?	-1.3	7.8%	?
O=C(/C=C/C=C/c1ccccc1)CC1(O)C(=O)N(CCc2ccccc2)c2ccccc21 (configuration not stated)	0.8%	-35%	-22%	-1.5	-2.0	1.3%	-16%
O=C(COC(=O)COc1ccc(Cl)cc1)NC1CCCC1	-0.9%	/	7%	/	-5.0	1.4%	22%

Profiles, quoted from the list. Order of values: ClpP mod, Sfp inh, gsp antag, Menin MLL FP FL, D2 agonist, PINK1 expr mod, gsp ag
`O=C(COC(=O)COc1ccc(Cl)cc1)NC1CCCC1` is entered as -0.9%, /, 7%, /, -5.0, 1.4%, 22%
`OC1(C2(O)CC(c3ccccc3)ON2)CCCCC1` (configuration not stated) is entered as 0.9%, 13%, 17%, -0.5, -3.6, -1.4%, -7%
